Assay outcomes from PubChem.
HPGD block: inhibitors of human 15-hydroxyprostaglandin dehydrogenase (HPGD); P15428; Potency, µM, without a hit: at the highest dose activity change, negative = inhibition, hits mostly inhibitors; purified HPGD, NADH fluorescence kinetic, PGE2 substrate; 150,000 compounds, 4.3% hits; active = well fitted inhibition curve with a large enough effect (not every such curve was filed as active); inconclusive = small, poorly fitted or top-dose-only effect, or another doubt; inactive = no such curve, though single readings can be large or run the other way;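 further: top concentration of the series not given in the record; plate controls included wells without enzyme; inactives centre near -10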
Target sequence (P15428 whole entry, looked up): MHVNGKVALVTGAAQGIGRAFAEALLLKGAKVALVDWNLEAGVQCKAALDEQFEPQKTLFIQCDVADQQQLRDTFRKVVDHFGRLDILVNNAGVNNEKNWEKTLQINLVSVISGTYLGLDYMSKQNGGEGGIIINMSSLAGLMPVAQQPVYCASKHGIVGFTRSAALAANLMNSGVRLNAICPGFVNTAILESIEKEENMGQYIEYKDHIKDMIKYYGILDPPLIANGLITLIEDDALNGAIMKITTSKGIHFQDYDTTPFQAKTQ
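NADH formation kinetics: reaction with 30 uM PGE2 and 1 mM NAD+ (final), 20 nM enzyme, Tris-HCl pH 8 with Tween 20, after 15 min compound preincubation at room temperature. Fluorescence change, last versus first of five reads.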
* hit, by the source's call; u = inconclusive; & = joins results of further samples. On the % scale 0 is the no-effect control and ±100 the full control effect; potency means the concentration at half of the fitted maximal effect.

SMILES	HPGD block
CC1(C)C(=O)N(CCN2CCC(C(=O)c3ccc(F)cc3)CC2)c2ccccc21	-14%
Cc1cc(C)cc(-n2c(SC(C)C(=O)NCc3ccc4c(c3)OCO4)nc3ccccc3c2=O)c1 (stereo not given)	0%
CCN1C(=O)c2cccc3c(S(=O)(=O)NC(Cc4c[nH]c5ccccc45)C(=O)O)ccc1c23 (stereo not given)	-2%
Cc1onc(-c2c(F)cccc2Cl)c1C(=O)N[C@H]1C(=O)N2[C@H]1SC(C)(C)[C@H]2C(=O)O	-18%
COc1ccc(-c2cc(C(=O)Nc3nc4ccccc4s3)c3ccccc3n2)cc1OC	-28%
CCN(C(=O)c1cc2cc3ccc(C)cc3nc2o1)c1ccc(OC)cc1	-18%
O=C(CSCc1ccc(F)cc1)Nc1ccc(F)cc1	-9%
COc1ccc(CCNC(=O)C2CCCN(Cc3nc(-c4cccc(Cl)c4)oc3C)C2)cc1OC (stereo not given)	-23%
CCCCC[C@H](O)/C=C/[C@@H]1[C@@H](CC(=O)CCC(=O)O)[C@@H](O)C[C@H]1O	-6%
NC(=O)c1cc(N)ccc1N1CCCC1	-12%
CCOC(=O)COn1c(=O)c(-c2ccc(OC)c(OC)c2)[n+]([O-])c2ccccc21	-25%
COCCCNCCCOc1ccc(C(C)(C)c2ccccc2)cc1	-2%
Cc1cc(NC2C3CC4CC(C3)CC2C4)n2ncnc2n1 (stereo not given)	-5%
CCCCNC(=O)CN1CCC2(O)CCCCC2C1c1ccccc1OC (stereo not given)	-4%
COC(=O)c1ccc(CSc2ncnc3ccccc23)o1	-20%
CSc1ccc(C2C(C#N)=C(N)N(c3ccccc3)C3=C2C(=O)CCC3)cc1 (stereo not given)	-12%
Cn1c(=O)[nH]c(=O)c2c1nc(N1CCNCC1)n2Cc1cccc2ccccc12	-18%
CCCc1cc(=O)[nH]c(SCC(=O)N2CCN(S(=O)(=O)c3ccc(C)cc3)C2)n1	0%
COC(=O)c1sc2ccccc2c1N	u
COC(=O)CSc1snnc1-c1ccc(Cl)cc1Cl	-15%
COc1ccccc1NC(=O)c1nn(-c2ccccc2)ccc1=O	-2%
Cn1cccc1C(=O)N1CCC2(CC1)CN(C(=O)Nc1cccc(F)c1)C2	-5%
CCOC(=O)N1CCN(CC(=O)Nc2ccc(C)c(Br)c2)CC1	1%
CCOC(=O)c1ccc2nc(NC(NC(C)=O)(C(=O)OC)C(F)(F)F)sc2c1 (stereo not given)	-10%
Cc1cccc(NC(=O)CC(C)(C)C)c1	16µM*
COC(=O)c1cc(NC(=O)C2(S(=O)(=O)c3ccc(C)cc3)CC2)cc(C(=O)OC)c1	-4%
C[C@@]12CC[C@@H]3c4ccc(O)cc4C[C@H](CCCCCCCCCS(=O)CCCC(F)(F)C(F)(F)F)[C@H]3[C@@H]1CC[C@@H]2O (stereo not given in full)	-6%
C/C(=N\NC(=O)CNC(=O)c1ccc2c(c1)OCO2)c1ccco1	-12%
CCOC(=O)c1[nH]c2ccccc2c1NC(=S)Nc1cccc(C)c1	-20%
CCC(C)N(CCNC(=O)CC1Oc2ccc(C)cc2NC1=O)C1CCCCC1 (stereo not given)	-3%
CNc1nc(SCc2ccc(C)cc2)nc2c1CCCC2	u
CCCC[C@@H]1C[C@H]1C(NC(=O)c1ccccc1)c1ccc(C(F)(F)F)cc1 (stereo not given in full)	-13%
Cc1ccc(Nc2nnc(C(C)(C)C)c(=O)n2N)cc1	2%
CCOC(=O)c1cnc2c(C(=O)OC)cccc2c1NCCN1CCOCC1	-5%
CCn1c(=S)[nH]c2cc(S(=O)(=O)N3CCCCC3)ccc21	-20%
COC(=O)c1ccc(Oc2nc(C)cc(Oc3ccccc3)n2)cc1	2%
COc1ccc(/C=C/c2noc(-c3ccccc3O)n2)cc1	u
COc1ccc(C2C(C#N)=C(N)N(c3cccnc3)C3=C2C(=O)CCC3)cc1Cn1cc([N+](=O)[O-])cn1 (stereo not given)	-10%
Cc1ccc(-c2nnc(-n3nnc4ccccc43)c3ccccc23)cc1	-18%
COC(=O)c1cc(NC(=O)c2c(Cl)cnn2C)cc(C(=O)OC)c1	-9%
COc1cccc(NC(=S)NC2CC(C)(C)NC(C)(C)C2)c1	-1%
CCN1CCN(Cc2cccc(Oc3ccc(Cl)cc3)c2)CC1	-1%
O=C(c1ccc(CNc2c(N3CCOCC3)c(=O)c2=O)cc1)N1CC=C(c2ccccc2)CC1	25µM*
COc1ccc(C(=O)CSc2nnc(-c3ccco3)n2C)cc1	-4%
CCCc1cc2c(OC(=O)CC)c(-c3ccc(C(=O)OCC)o3)c(=O)oc2cc1OC	u
Cc1ccc(NC(=O)CCOc2ccccc2)cc1S(=O)(=O)Nc1ccccc1Cl	-6%
O=C(CSC1=NCCS1)N1CCOCC1	-6%
COc1ccc(N2C(=O)C3CCCN3C2c2cccc(OC)c2)cc1 (stereo not given)	0%
COc1ccc(-n2nnc3c(=O)n(Cc4cccc(C)c4)cnc32)cc1	16µM*
CCOC(=O)C1CCN(C(=O)Nc2ccc(Cl)cc2Cl)CC1	-10%

Remaining list, next part.
SMILES	HPGD block
O=[N+]([O-])c1ccc(Cl)c(/C=N/N2CCN(C3c4ccccc4-c4ccccc43)CC2)c1	1%
CCn1c(C)nc2cc(C(=O)n3cc(C(=O)c4cc(F)ccc4O)cn3)ccc21	u
COC(=O)c1ccc(CNC(=O)c2ccc(COc3ccccc3)cc2)cc1	-28%
NC(=O)C1CNc2ccccc2O1 (stereo not given)	-9%
COCCCNC(=O)Cn1cc(/C=C(\C#N)C(=O)N2CCN(c3ccccc3)CC2)c2ccccc21	-12%
CCN(CC)CC(=O)c1c[nH]c2ccc(OC)cc12	-9%
CCOC(=O)c1[nH]c(C)c(C(=O)NCc2ccc(C)cc2)c1C	-6%
COc1ccc(OC)c(NC(=O)Cc2nn(C)c(=O)c3ccccc23)c1	-6%
S=C(Nc1ccc(Br)cc1)N1CCCC1	-8%
CC(C)(C=O)Cc1cc(C(C)(C)C)c(O)c(C(C)(C)C)c1	-26%&-24%

Overlap with the part before: 2 entries; new compounds follow.
SMILES	HPGD block
S=C(Nc1ccc(Br)cc1)N1CCCC1	-8%
CC(C)(C=O)Cc1cc(C(C)(C)C)c(O)c(C(C)(C)C)c1	-26%&-24%
COc1ccc(CNC(=O)c2c(C)cc(=O)oc2C)cc1OC	-2%
CC1(C)CC(=O)C(C(=O)/C=C/NCCc2ccccc2)C(=O)C1	0%
O=c1[nH]cc([N+](=O)[O-])cc1Br	-18%
CCC(C)(C)n1nnnc1C(c1cc2cc(C)cc(C)c2[nH]c1=O)N1CCN(Cc2ccc3c(c2)OCO3)CC1 (stereo not given)	-16%
CC(=O)Nc1cccc(-c2nc3ccccc3c(=O)o2)c1	-11%
CN(CC#CC1(O)c2ccccc2-c2ccccc21)Cc1ccccc1	0%
O=C(CSc1nnc2scc(-c3ccc(F)cc3)n12)NCc1ccco1	-3%
Cc1cc(C)c(S(=O)(=O)Nc2ccc(O)c(Sc3ncn[nH]3)c2)c(C)c1	-15%
CCOC(=O)NC(=O)CSc1nc(C)cc(C(F)(F)F)c1C#N	-7%
CCn1c(SCC(=O)Nc2nc(C)cs2)nnc1C(C)NC(=O)c1ccccc1 (stereo not given)	-9%
C/C(N)=C(/C#N)C(=O)COC(=O)C(NS(=O)(=O)c1ccc(Cl)cc1)C(C)O (stereo not given)	-9%
COc1ccc(Cl)cc1S(=O)(=O)N1CCCC1	u
Cc1ccc(N2CC(C(=O)N3CCCc4ccccc43)CC2=O)cc1 (stereo not given)	-25%
NS(=O)(=O)c1ccc(N=Nc2cc3ccccc3c(C(=O)O)c2O)cc1	-15%
Cc1cc(N2C(=O)C(O)=C(C(=O)c3cccs3)C2c2cccc(O)c2)no1 (stereo not given)	-13%
CC(=O)CSc1nnc(NC(=O)CCc2ccccc2)s1	-8%
CCCC1=[N+](CC(=O)c2ccccc2)CCn2cccc21	-11%
Cc1ccc(S(=O)(=O)NN2C(=O)c3ccccc3NC2(C)C)cc1	u
CCOc1ccc(C(Nc2ccc(C)cc2)P2(=O)OCC(C)(C)CO2)cc1 (stereo not given)	-16%
O=C(NCCCCCCNC(=O)OC1CCS(=O)(=O)C1)OC1CCS(=O)(=O)C1 (stereo not given)	4%
N#CC(/C(=N/S(=O)(=O)c1cccs1)c1ccccc1)c1nc2ccccc2[nH]1 (stereo not given)	-5%
Cc1cccc(C)c1NC(=O)CSc1nc(C)c(CC(=O)c2ccc(Br)cc2)c(C)c1C#N	-8%
O=C(CCSc1nnc(-c2ccncc2)o1)Nc1ccc(F)cc1	-15%
CCCCOc1ccc(C2OC34CCCCC3C(C#N)(C#N)C2(C#N)C(=N)O4)cc1 (stereo not given)	u
CCn1c(SCC(=O)Nc2ccc(Cl)cc2)nc2nc3c(cc2c1=O)CCCC3	-10%
Cc1onc(-c2ccccc2)c1-c1n[nH]c(=S)n1-c1ccccc1Cl	-17%
COc1ccc(C2CC(C)=NN2C=O)cc1OC (stereo not given)	-17%
O=C(COc1ccc(Br)cc1Br)NC(=S)Nc1cccc(CO)c1	-18%
CC(=O)NC(N1CCCCC1)C(F)(F)C(F)(F)C(F)(F)C(F)F (stereo not given)	3%
Nc1ccc(C2=Nc3cccc4cccc(c34)N2)cc1	-30%

A draw from above in order of formula weight, ascending:
SMILES	HPGD block
O=C(CSC1=NCCS1)N1CCOCC1	-6%
COC(=O)CSc1snnc1-c1ccc(Cl)cc1Cl	-15%
CN(CC#CC1(O)c2ccccc2-c2ccccc21)Cc1ccccc1	0%
NS(=O)(=O)c1ccc(N=Nc2cc3ccccc3c(C(=O)O)c2O)cc1	-15%
CCC(C)N(CCNC(=O)CC1Oc2ccc(C)cc2NC1=O)C1CCCCC1 (stereo not given)	-3%
COC(=O)c1cc(NC(=O)C2(S(=O)(=O)c3ccc(C)cc3)CC2)cc(C(=O)OC)c1	-4%
CCC(C)(C)n1nnnc1C(c1cc2cc(C)cc(C)c2[nH]c1=O)N1CCN(Cc2ccc3c(c2)OCO3)CC1 (stereo not given)	-16%

(next part)
SMILES	HPGD block
CC1(C)Cc2cccc(OCC(=O)O)c2O1	-8%
Cc1[nH]n(-c2ccccc2)c(=O)c1C(C[N+](=O)[O-])c1ccc(F)cc1 (stereo not given)	-5%
CCCCCCCC(=O)NC(Nc1ccc(S(N)(=O)=O)cc1)C(Cl)(Cl)Cl (stereo not given)	-9%
Cc1cc(/C=C2\SC(=Nc3ccc(F)cc3)NC2=O)c(C)n1-c1ccc(S(N)(=O)=O)cc1	-10%
COc1ccc(C2C(C(C)=O)=C(O)C(=O)N2CCc2c[nH]c3ccccc23)cc1OC (stereo not given)	-9%
COC(=O)c1cc(OC)c(OC)cc1N	-17%
COc1ccc(CNC(=O)c2cccc(-c3ccc(C)c4ccccc34)n2)cc1	u
CN(CC(=O)Nc1ccc(N2CCOCC2)cc1)CC(=O)Nc1cccc(C#N)c1	-10%
COc1ccc(C(=O)Sc2ccc(Cl)cc2)cc1OC	-14%
CCOc1cccc(-c2nnc3sc(-c4cc(OC)c(OC)c(OC)c4)nn23)c1	u
CCOC(=O)c1oc2ccccc2c1N	-21%
O=C(OCCN1CCOCC1)c1ccc2c(c1)OCCO2	-9%
O=C(COC(=O)C1(c2ccc(F)cc2)CCCC1)NCc1ccc2c(c1)OCO2	-3%
CCOC(=O)C1C(=O)NC(N2CCc3ccccc32)=NC1c1ccccc1 (stereo not given)	-11%
CCN1C(=O)/C(=C2\SC(=S)N(c3c(C)n(C)n(-c4ccccc4)c3=O)C2=O)c2ccccc21	-13%
O=C(O)CCNc1ccccc1C(=O)O	u
CC(=O)Nc1ccc(S(=O)(=O)N2CCN(c3cccc(C)c3C)CC2)cc1	-6%
N#C/C(=C\c1ccc(-c2ccccc2)cc1)c1nc(-c2ccco2)cs1	-15%
Cc1cc(C(=O)OCC(=O)N2CCN(c3ccccc3)CC2)c2ccccc2n1	-11%
Cc1ccc(C2/C(=C(/O)c3ccc(Br)cc3)C(=O)C(=O)N2Cc2ccco2)o1 (stereo not given)	-21%
COc1ccc(N(CCC#N)S(=O)(=O)c2cccc3nsnc23)cc1	-16%
COc1ccccc1-c1nc2cc3ccccc3cc2nc1-c1ccccc1OC	u
Cc1cccc2sc(NC(=O)CNS(=O)(=O)c3ccc(Br)s3)nc12	-13%
CCOc1ccc(S(=O)(=O)n2ccc(C)n2)c2ccccc12	-16%
O=C(O)c1nnsc1-c1ccc(-c2snnc2C(=O)O)cc1	-22%
COC(=O)c1ccc(C(=O)OC)c(NC(=O)CN(C)Cc2ccccc2)c1	-11%
CCn1c(SCC(=O)Nc2nnc(C)s2)nc2c(c1=O)SC(C)C2 (stereo not given)	-13%
CC1(C)CC(=O)C(C=NCc2ccc3c(c2)OCO3)=C(O)C1	-20%
Nc1cc(=O)[nH]c(SCC(=O)N2CCCc3ccccc32)n1	-4%
CCCCn1nnc(NC(=O)COc2ccc(Cl)c(C)c2)n1	-13%
Cc1ccc(C(C)C)cc1OCCCCN1CCCC1	-10%
O=C(NCCO)/C(=C\c1ccc2c(c1)OCO2)NC(=O)c1ccc(Br)cc1	-9%
Cc1cc(NC(=O)/C(C#N)=C/c2ccc(-c3ccc(SC(F)F)cc3)o2)n(-c2ccccc2)n1	-7%
CC(C)C(c1nnnn1Cc1cccs1)N1CCN(c2ccccc2)CC1 (stereo not given)	-1%
COc1cc(NC(=O)c2cc3ccccc3o2)c(OC)cc1Br	u
N=c1n(Cc2ccccc2)c2ccccc2n1CC(O)COc1ccccc1 (stereo not given)	-7%

Sorted by value in HPGD block (rising): some entries from above.
SMILES	HPGD block
Cc1ccc(C(C)C)cc1OCCCCN1CCCC1	-10%
O=C(NCCO)/C(=C\c1ccc2c(c1)OCO2)NC(=O)c1ccc(Br)cc1	-9%
N=c1n(Cc2ccccc2)c2ccccc2n1CC(O)COc1ccccc1 (stereo not given)	-7%

Not all compounds are listed; count on the stated rates, not on these rows.
